Compound activity from PubChem.
T cruzi inh: T. cruzi replication inhibition; T. cruzi beta-gal in NIH3T3, luminescence, 90 h; inhibition, % (test concentration not listed); actives 1.4% (n = 300,000); AID 1885;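 active = mean inhibition across valid replicates above about 55%, limit read from the data; inconclusive = mean below that limit but half or more replicates reach it; inactive = mean below it, under half of replicates reach it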;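 note: signal also drops with host cell toxicity which is not excluded here; 0% = plate median of DMSO wells and 100% = zero luminescence signal; higher percent means less beta-gal luminescence so fewer parasites; stock transfer was 50 nL into about 50 µL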
E coli growth: inhibitors of Escherichia coli growth | actives 0.21% (n = 330,000) | AID 1053175 | OD600 absorbance (no concentration beside the values) | OD600, 23 h; stronger effect = lower value;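 active = OD600 absorbance below the run mean of sample wells minus 3.6 SD, in any replicate, cut at about 0.56 in these data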;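 note: stock transfer was 300 nL into about 60 µL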
Bfl-1 A1 inh: inhibitors of the anti-apoptotic protein A1, read as caspase activation; MEF A1-2A-BIM cells, Caspase-Glo 3/7 luminescence, 3 h; percent of clofoctol response, vehicle zero; caspase activation, % (no concentration beside the values); actives 0.066% (n = 330,000); AID 2462;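 active = over half of replicate activation scores above 10%, or exactly half above 10 with the replicate mean above 10; inconclusive = replicate mean below 10 yet half the replicates above 10; inactive = over half of replicates below 10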;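 note: wells of about 30 µL received 50 nL stock; many hits fall short of the cut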
AF4-AF9 inh: blocks AF4 peptide binding to human AF9; P42568; AlphaScreen, biotin-AF4 peptide binding to FLAG-AF9; inhibition, % at 10 µM; actives 0.47% (n = 350,000); AID 651704;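 active = every replicate reaching a set inhibition limit, whatever the replicate mean, cut at about 25% in these data; inconclusive = mean inhibition reaches that limit but some replicates miss it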;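 note: 0% = plate neutral control median and 100% = total signal loss; the record names both 10 and 1 µM as test concentration; the first replicate is given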
Target sequence (P42568 whole entry, looked up): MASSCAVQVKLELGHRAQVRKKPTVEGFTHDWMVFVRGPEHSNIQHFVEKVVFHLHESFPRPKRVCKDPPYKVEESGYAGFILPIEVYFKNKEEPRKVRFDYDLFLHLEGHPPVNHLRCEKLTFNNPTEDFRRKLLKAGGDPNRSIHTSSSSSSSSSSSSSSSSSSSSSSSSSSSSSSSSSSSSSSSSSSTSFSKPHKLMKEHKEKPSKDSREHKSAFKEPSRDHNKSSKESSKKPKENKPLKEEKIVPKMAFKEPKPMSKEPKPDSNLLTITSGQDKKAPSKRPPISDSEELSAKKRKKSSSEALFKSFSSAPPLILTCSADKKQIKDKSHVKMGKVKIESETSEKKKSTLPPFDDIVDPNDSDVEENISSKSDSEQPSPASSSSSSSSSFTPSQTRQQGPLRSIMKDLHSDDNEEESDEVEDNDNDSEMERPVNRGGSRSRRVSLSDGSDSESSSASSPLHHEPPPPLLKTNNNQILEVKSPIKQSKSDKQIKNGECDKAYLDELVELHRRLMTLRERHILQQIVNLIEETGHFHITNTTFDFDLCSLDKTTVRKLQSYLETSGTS
Ecoli rRNA inh: inhibits bacterial ribosomal RNA function over humanized ribosomes; E. coli WT GFP vs humanized-ribosome RFP mutants, fluorescence, 24 h; stronger effect = lower value; DMSO median 0, no signal -100; AID 720706; actives 1.6% (n = 350,000); GFP signal change (wild-type ribosome), % (test concentration not listed);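 active = significant combined selectivity score with lowered wild-type GFP, culture density cut under 30%, mutant RFP and density less affected; inactive = any of these conditions unmet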; note: one replicate is shown; some compounds called inactive have numbers as strong as hits
Beta cell apopt: blocks beta cell apoptosis. INS-1E cytokine-induced death, ATP luminescence, 48 h; percent of positive-control rescue, neutral wells zero. protection from apoptosis, % (concentration not given with the values). actives 0.8% (n = 300,000);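 active = all replicates at 75% or more, or half of them and the mean; inconclusive = half reach 75% but not the mean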;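 note: 0% = cytokine-treated negative control wells and 100% = positive control rescue; higher means more ATP so stronger rescue from cytokine killing; wells of about 40 µL received 100 nL stock; the first replicate is given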
FGF22 binding: binders of recombinant human FGF22 by thermal shift; SYPRO orange fluorescence; percent of sucrose octasulfate shift, DMSO zero; calls only at 9.99 µM; actives 1.5% (n = 340,000);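 active = melting point raised past a set limit in the mean and every replicate; inconclusive = no clear call; three in four hits are not shown here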
Target sequence (Q9HCT0 whole entry, looked up): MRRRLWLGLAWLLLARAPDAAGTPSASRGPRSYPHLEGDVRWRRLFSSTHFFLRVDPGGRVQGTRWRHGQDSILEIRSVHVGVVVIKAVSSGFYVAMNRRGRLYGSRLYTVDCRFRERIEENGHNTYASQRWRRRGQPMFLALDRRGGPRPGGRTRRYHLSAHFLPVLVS
UCH37 DUB inh: human UCH37 deubiquitinating enzyme inhibition; Q9Y5K5; actives 0.33% (n = 330,000); inhibition, % (test concentration not listed); purified proteasome/UCH37, Ub-AMC cleavage fluorescence;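 active = mean of two replicates above 20%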;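 note: 0% = compound-free wells with enzyme and 100% = wells lacking proteasome; stock transfer was 100 nL into about 20 µL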
Target sequence (Q9Y5K5 whole entry, looked up): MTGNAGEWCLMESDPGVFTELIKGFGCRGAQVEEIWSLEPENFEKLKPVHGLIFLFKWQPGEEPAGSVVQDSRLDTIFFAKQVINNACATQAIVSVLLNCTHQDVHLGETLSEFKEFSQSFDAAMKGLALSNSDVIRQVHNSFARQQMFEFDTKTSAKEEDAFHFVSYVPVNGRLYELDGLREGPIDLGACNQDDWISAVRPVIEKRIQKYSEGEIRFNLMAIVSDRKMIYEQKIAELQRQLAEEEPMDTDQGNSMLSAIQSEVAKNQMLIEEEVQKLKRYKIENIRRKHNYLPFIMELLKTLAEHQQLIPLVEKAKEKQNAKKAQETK
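Material: human UCH37 enzyme supplied as purified proteasome complex. Measure: % inhibition of Ub-AMC cleavage fluorescence. Medium: pH 7.4 Tris-HCl (50 mM) with ovalbumin, ATP-MgCl2, DTT. Times: 30 min preincubation with enzyme, 25 min cleavage at room temperature. Detection: AMC fluorescence intensity at 355/460 nm.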
Ecoli rRNA inh OD600: also measured in Ecoli rRNA inh; calls as there; OD600 change, %; measured here: OD600 growth;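 optical density of the mix in the first replicate; 0 = DMSO median and -100 = no signal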
Ecoli rRNA inh RFP: recorded beside Ecoli rRNA inh, whose call it bears; RFP signal change, %; measured here: RFP humanized mutant strains;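 first replicate; 0 = DMSO median and -100 = no signal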
Active calls of the source: *.

CC(C)CC1C(C#N)=C(N)OC2=C1C(=O)CC(c1ccccc1)C2 (stereo not given) was read as T cruzi inh -5, E coli growth 0.67, Bfl-1 A1 inh 0.2, AF4-AF9 inh -1.4, Ecoli rRNA inh -36, Beta cell apopt 2, FGF22 binding inactive, UCH37 DUB inh -1.3, Ecoli rRNA inh OD600 -50 and Ecoli rRNA inh RFP -3.2.
For CCN(C(=O)COC(=O)CSc1ccc(C)c(C)c1)C1CCS(=O)(=O)C1 (stereo not given) the results were T cruzi inh -5, E coli growth 0.68, Bfl-1 A1 inh -0.2, AF4-AF9 inh 2.5, Ecoli rRNA inh 3, Beta cell apopt -3, FGF22 binding inactive, UCH37 DUB inh 0.9, Ecoli rRNA inh OD600 1 and Ecoli rRNA inh RFP -1.0.
CCN(CC(=O)Nc1sc2c(c1C#N)CCCC2)CC(=O)NC1CCS(=O)(=O)C1 (stereo not given) was read as T cruzi inh -2, E coli growth 0.72, Bfl-1 A1 inh -0.7, AF4-AF9 inh 1.2, Ecoli rRNA inh -2, Beta cell apopt 2, UCH37 DUB inh 2.8, Ecoli rRNA inh OD600 -12 and Ecoli rRNA inh RFP -9.1.
Screening Cc1ccc(C(=O)NNC(=O)c2csc(N3CCOCC3)n2)s1 returned T cruzi inh 10, E coli growth 0.65, Bfl-1 A1 inh -1.0, AF4-AF9 inh 1.1, Ecoli rRNA inh 6, Beta cell apopt -3, UCH37 DUB inh 1.0, Ecoli rRNA inh OD600 -1 and Ecoli rRNA inh RFP 0.2.
For Cc1cc(C)c(NS(=O)(=O)c2ccc3c(c2)NC(=O)CC(=O)N3)c(C)c1 the results were T cruzi inh -7, E coli growth 0.71, Bfl-1 A1 inh -0.4, Beta cell apopt -2 and UCH37 DUB inh 3.6.
O=C(/C=C\c1ccco1)Nc1nc(-c2ccccc2)cs1 was read as T cruzi inh 14, E coli growth 0.68, Bfl-1 A1 inh 0.3, AF4-AF9 inh 1.7, Ecoli rRNA inh 0, FGF22 binding inactive, UCH37 DUB inh 2.4, Ecoli rRNA inh OD600 14 and Ecoli rRNA inh RFP 3.0.
Screening O=C1c2cccc3c(Nc4ccccc4Cl)c([N+](=O)[O-])cc(c23)C(=O)N1CCO returned T cruzi inh 59*, E coli growth 0.67, Bfl-1 A1 inh -0.3, Beta cell apopt 9 and UCH37 DUB inh 8.1.
For O=C(Cc1cccc2ccccc12)NNC(=O)c1cccs1 the results were T cruzi inh 8, E coli growth 0.67, Bfl-1 A1 inh 0.2, Beta cell apopt -4 and UCH37 DUB inh 0.7.
Screening COc1cc2c(-c3ccc4cc[nH]c4c3)c(-c3ccc(C#N)cc3)oc(=O)c2cc1OC returned E coli growth 0.71, Bfl-1 A1 inh 0.1, AF4-AF9 inh -1.9, Ecoli rRNA inh -2, Beta cell apopt 27, FGF22 binding inactive, UCH37 DUB inh -31, Ecoli rRNA inh OD600 7 and Ecoli rRNA inh RFP 0.0.
`O=[N+]([O-])/C=C1/CCCCCN1` gave T cruzi inh 0, E coli growth 0.69, Bfl-1 A1 inh 0.1, AF4-AF9 inh -0.2, Ecoli rRNA inh 18, Beta cell apopt 2, FGF22 binding inactive, UCH37 DUB inh 14, Ecoli rRNA inh OD600 8 and Ecoli rRNA inh RFP 2.1.
`COC(=O)c1ccc(NC(=O)c2ccc(N(C)S(C)(=O)=O)cc2)cc1` gave T cruzi inh -7, E coli growth 0.69, Bfl-1 A1 inh -0.4, Beta cell apopt 3 and UCH37 DUB inh 3.7.
Screening COc1ccc(CNC(=O)CN(C(=O)c2snc(C(N)=O)c2N)c2ccccc2F)cc1 returned T cruzi inh 0, E coli growth 0.63, Bfl-1 A1 inh 0.6, AF4-AF9 inh 3.1, Ecoli rRNA inh -1, Beta cell apopt -1, FGF22 binding inactive, UCH37 DUB inh -84, Ecoli rRNA inh OD600 -1 and Ecoli rRNA inh RFP -1.0.
COC(=O)/C=C(\C)N=Nc1c(O)[nH]c2ccccc12 was read as T cruzi inh 0, E coli growth 0.66, Bfl-1 A1 inh -3.0, AF4-AF9 inh 2.5, Ecoli rRNA inh -17, Beta cell apopt -15, FGF22 binding inactive, UCH37 DUB inh 6.0, Ecoli rRNA inh OD600 -10 and Ecoli rRNA inh RFP 9.1.
For Cc1ccc(N=CNc2ccc(C)cc2C)c(C)c1 the results were T cruzi inh -12, E coli growth 0.68, Bfl-1 A1 inh -0.2, AF4-AF9 inh -4.7, Ecoli rRNA inh 9, Beta cell apopt 4, FGF22 binding inactive, UCH37 DUB inh 1.8, Ecoli rRNA inh OD600 5 and Ecoli rRNA inh RFP 1.7.
Screening Cc1cc(NC(=O)CCN2C(=O)/C(=C/c3ccccc3Cl)SC2=S)no1 returned T cruzi inh -20, E coli growth 0.7, Bfl-1 A1 inh 0.1, AF4-AF9 inh -2.0, Ecoli rRNA inh 16, Beta cell apopt 4, FGF22 binding inactive, UCH37 DUB inh 8.1, Ecoli rRNA inh OD600 6 and Ecoli rRNA inh RFP 2.0.
For CCOC(=O)COn1c(=O)c(-c2ccc(Cl)cc2)[n+]([O-])c2ccccc21 the results were T cruzi inh -21, E coli growth 0.71, Bfl-1 A1 inh -0.6, AF4-AF9 inh -2.1, Ecoli rRNA inh 2, Beta cell apopt -7, FGF22 binding inactive, UCH37 DUB inh -11, Ecoli rRNA inh OD600 10 and Ecoli rRNA inh RFP -2.5.
COc1ccc(C(=O)/C=C/c2ccc(OC)cc2OC)c(O)c1 was read as T cruzi inh -21, E coli growth 0.77, Bfl-1 A1 inh -7.6, AF4-AF9 inh 16, Beta cell apopt 5, FGF22 binding inactive and UCH37 DUB inh 2.4.
For CC(=O)Nc1ccc(C(=O)NNC(=O)C2C3CCCCC32)cc1 (stereo not given) the results were T cruzi inh -11, E coli growth 0.72, Bfl-1 A1 inh 0.6, AF4-AF9 inh -2.2, Ecoli rRNA inh 9, Beta cell apopt -3, FGF22 binding inactive, UCH37 DUB inh -0.9, Ecoli rRNA inh OD600 2 and Ecoli rRNA inh RFP 0.2.
`COc1ccc(N2CCN(C(=O)C(=O)c3c(C)[nH]c4ccccc34)CC2)cc1` gave T cruzi inh 1, E coli growth 0.7, Bfl-1 A1 inh inconclusive, AF4-AF9 inh 1.2, Ecoli rRNA inh 2, Beta cell apopt 2, FGF22 binding inactive, UCH37 DUB inh 4.5, Ecoli rRNA inh OD600 -3 and Ecoli rRNA inh RFP 1.8.
Screening CCOc1ccccc1NC(=O)N1CCN(S(C)(=O)=O)CC1 returned T cruzi inh -1, E coli growth 0.67, Bfl-1 A1 inh 0.5, AF4-AF9 inh -0.8, Ecoli rRNA inh 4, Beta cell apopt -5, FGF22 binding inactive, UCH37 DUB inh 1.0, Ecoli rRNA inh OD600 10 and Ecoli rRNA inh RFP 5.5.
Screening O=C(Nc1nc2ccccc2s1)c1ccccc1 returned T cruzi inh -1, E coli growth 0.65, Bfl-1 A1 inh -0.3, AF4-AF9 inh 0.1, Ecoli rRNA inh -37, Beta cell apopt 12, FGF22 binding inactive, UCH37 DUB inh -3.0, Ecoli rRNA inh OD600 -27 and Ecoli rRNA inh RFP -16.
Screening CC1CC(C)CN(C(=O)COC(=O)COc2ccccc2C#N)C1 (stereo not given) returned E coli growth 0.69, Bfl-1 A1 inh 0.4, AF4-AF9 inh -12, Ecoli rRNA inh 2, Beta cell apopt 0, FGF22 binding inactive, UCH37 DUB inh -3.5, Ecoli rRNA inh OD600 1 and Ecoli rRNA inh RFP 1.7.
`COc1ccccc1NS(=O)(=O)c1ccc(C)c(C(=O)NCC2CCCO2)c1` (stereo not given) gave T cruzi inh -7, E coli growth 0.68, Bfl-1 A1 inh 1.4, Beta cell apopt 2 and UCH37 DUB inh 2.9.
`O=C(C[n+]1ccccc1)N/N=C/c1ccc(Cl)c(Cl)c1` gave T cruzi inh -13, Bfl-1 A1 inh -0.3, AF4-AF9 inh 2.3, Ecoli rRNA inh 18, Beta cell apopt -4, FGF22 binding inactive, Ecoli rRNA inh OD600 23 and Ecoli rRNA inh RFP 1.2.

2 compounds drawn at random from those above:
COC(=O)/C=C(\C)N=Nc1c(O)[nH]c2ccccc12 was read as T cruzi inh 0, E coli growth 0.66, Bfl-1 A1 inh -3.0, AF4-AF9 inh 2.5, Ecoli rRNA inh -17, Beta cell apopt -15, FGF22 binding inactive, UCH37 DUB inh 6.0, Ecoli rRNA inh OD600 -10 and Ecoli rRNA inh RFP 9.1.
Screening O=C(Nc1nc2ccccc2s1)c1ccccc1 returned T cruzi inh -1, E coli growth 0.65, Bfl-1 A1 inh -0.3, AF4-AF9 inh 0.1, Ecoli rRNA inh -37, Beta cell apopt 12, FGF22 binding inactive, UCH37 DUB inh -3.0, Ecoli rRNA inh OD600 -27 and Ecoli rRNA inh RFP -16.

Further results follow.
CC(=O)N1CCC(N(CCN2CCOCC2)C(=O)Nc2ccc(Cl)c(Cl)c2)CC1 was read as T cruzi inh 6, E coli growth 0.7, Bfl-1 A1 inh 1.4, AF4-AF9 inh -5.0, Ecoli rRNA inh -40*, Beta cell apopt 0, FGF22 binding inactive, UCH37 DUB inh 5.6, Ecoli rRNA inh OD600 -35* and Ecoli rRNA inh RFP -0.3*.
Screening O=C(O)c1ccc(C2NCC(c3ccccc3Cl)c3c2[nH]c2ccccc32)cc1 (stereo not given) returned T cruzi inh -18, E coli growth 0.69, Bfl-1 A1 inh 1.5, AF4-AF9 inh 5.5, Ecoli rRNA inh -37*, Beta cell apopt -7, FGF22 binding inactive, UCH37 DUB inh -24, Ecoli rRNA inh OD600 7.6* and Ecoli rRNA inh RFP 2.3*.
`C=CCN1C(=O)C(O)(CC(=O)c2ccc(N)cc2)c2ccccc21` (stereo not given) gave T cruzi inh -31, E coli growth 0.75, Bfl-1 A1 inh 0.8, Beta cell apopt 0 and UCH37 DUB inh -2.1.
COCCN1CCN(C(=O)C2CCC(=O)N(Cc3ccccc3F)C2)CC1 (stereo not given) was read as T cruzi inh 0, E coli growth 0.69, Bfl-1 A1 inh -0.2, AF4-AF9 inh 0.1, Ecoli rRNA inh 4, Beta cell apopt 6, FGF22 binding inactive, UCH37 DUB inh -0.2, Ecoli rRNA inh OD600 18 and Ecoli rRNA inh RFP -0.5.
CC(C)C(NC(=O)c1ccc2c(c1)OCO2)C(=O)N/N=C/c1cccs1 (stereo not given) was read as T cruzi inh -8, Bfl-1 A1 inh 0.7, AF4-AF9 inh -6.2, Beta cell apopt 1 and FGF22 binding inactive.
Screening O=C(N/N=C/C=C/c1ccc2c(c1)OCO2)C(O)c1ccccc1 (stereo not given) returned T cruzi inh -1, Bfl-1 A1 inh -0.8, Ecoli rRNA inh -3, Beta cell apopt -8, FGF22 binding inactive, Ecoli rRNA inh OD600 -1 and Ecoli rRNA inh RFP -0.8.
For O=C1COc2ccc(C(=O)COc3ccc(Cl)cc3Br)cc2N1 the results were T cruzi inh 9, E coli growth 0.71, Bfl-1 A1 inh 0.6, AF4-AF9 inh 0.9, Ecoli rRNA inh -23, Beta cell apopt 1, FGF22 binding inactive, UCH37 DUB inh 0.2, Ecoli rRNA inh OD600 -23 and Ecoli rRNA inh RFP -7.2.

Some of the compounds tested; count on the stated rates, not on these rows.
